Bioassay records as filed in PubChem BioAssay.
LANA-nucl inh: LANA-nucleosome interaction inhibition; FITC-LANA1-23 / chicken nucleosome fluorescence polarization; stronger effect = lower value; z-score (concentration not given with the values); hit rate 0.3% among 51,000; AID 720717;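 active means both repeat wells score below -2 in polarization z-score versus plate sample wells, excluding overly bright wells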;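 further: 100 nL library stock added to about 30 µL; numbers are from one replicate; some results filed as inactive read as strong as hits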
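Material: Purified chicken nucleosomes with FITC-labelled LANA N-terminal peptide (1-23) | Reagent: 50 nM FITC-LANA1-23 probe | Medium: TEN-BT buffer, pH 7.5 | Times: 10–45 min incubation at room temperature | Detection: Fluorescence polarization | Replication: Duplicates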
Ab BasE inh: blocks the Acinetobacter baumannii siderophore enzyme BasE. purified BasE, fluorescence polarization binding displacement. inhibition, % (concentration not given with the values). hit rate 0.1% among 84,000;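 active means both replicates above 25% with normal brightness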;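 further: 0% = negative plate control signal and 100% = positive plate control signal; stock transfer was 100 nL into about 30 µL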
Starred values were filed as active, the others as inactive; & = joins results of further samples. Only part of the results is shown. The share of hits here may be higher or lower than overall.

For Nc1cc(=O)nc(SCc2ccccc2)n1Cc1ccco1 the results were LANA-nucl inh -0.86 and Ab BasE inh -1.0.
`CC1CCCCN1C(=O)CN1C(=O)c2ccccc2C1=O` (configuration not stated) gave LANA-nucl inh 3.2 and Ab BasE inh -1.8.
`CCN1C(=O)/C(=N\N2CCN(C)CC2)c2ccccc21` gave Ab BasE inh 0.5.
For N#Cc1cc(C#N)c(SCCN2CCOCC2)nc1N the results were LANA-nucl inh 1.3 and Ab BasE inh -2.6.
Screening CCOc1ccc(Nc2ccc(S(=O)(=O)N3CCOCC3)cn2)cc1 returned Ab BasE inh 3.3.
O=c1c(Oc2ccccc2)c(C(F)(F)F)oc2c3c(ccc12)OCO3 was read as LANA-nucl inh 0.17 and Ab BasE inh -1.0.
Screening CN(c1ccccc1C(=O)NCCc1ccccc1)S(C)(=O)=O returned Ab BasE inh 0.1.
Screening CN1CCC(N(C)C2CCN(Cc3ccccc3)CC2)CC1 returned LANA-nucl inh -1.3 and Ab BasE inh -0.8.
`CCNC(=S)N/N=C/c1c(F)cccc1F` gave Ab BasE inh 1.6.
`O=C1CC(c2ccccc2)NC(=S)N1` (configuration not stated) gave LANA-nucl inh 0.83 and Ab BasE inh -0.7.
Screening C=CCc1cc(C)ccc1OCCNC(C)C returned Ab BasE inh 0.2.
`COc1ccccc1N1CCN(C(=O)CCCC(=O)O)CC1` gave Ab BasE inh -2.6.
`Cc1ccc(S(=O)(=O)NCCSc2nnc3nc(C)cc(C)n23)cc1` gave LANA-nucl inh 0.4 and Ab BasE inh 4.4.
Screening O=C(CN1C(=O)S/C(=C\C=C\c2ccccc2)C1=O)Nc1cccc(O)c1 returned Ab BasE inh 0.7.
`c1ccc2c(c1)oc1c(NCC3CCCO3)ncnc12` (configuration not stated) gave Ab BasE inh 0.0.
For COc1ccccc1C(=O)NCCC(=O)NC1CCCCCC1 the results were Ab BasE inh 0.8.
For CCOC(=O)c1sc(-c2ccc(C)cc2)c(C#N)c1C the results were Ab BasE inh -0.1.
Screening CN1c2ccsc2C(=O)/C(=C/Nc2cccnc2)S1(=O)=O returned LANA-nucl inh -0.79 and Ab BasE inh 2.7.
For N#Cc1c(-c2ccc(Cl)cc2)cc[nH]c1=O the results were LANA-nucl inh 0.89.
For Cc1cc(NC=C(C#N)C#N)no1 the results were LANA-nucl inh 0.22 and Ab BasE inh -0.3.
Screening Cn1cc(/C=C(\C#N)C(=O)OC2CCCCC2)c2ccccc21 returned LANA-nucl inh -0.23 and Ab BasE inh -0.7.
CCOC(=O)c1cc2c(=O)n(C)c3ccccc3c2s1 was read as LANA-nucl inh -0.33 and Ab BasE inh 1.0.
For O=C(CSc1nncn1-c1ccccc1)Nc1ccccc1C(=O)Nc1ccc2c(c1)OCO2 the results were Ab BasE inh 1.2.
For COc1cccc(/C=C/C(=O)NC2=NCCS2)c1 the results were Ab BasE inh -1.0.
N#CC1=C(N)OC2=C(C(=O)CCC2)C1c1cc2cc3c(cc2nc1Cl)OCO3 (configuration not stated) was read as LANA-nucl inh -0.41 and Ab BasE inh -4.8.
Screening O=C1Nc2ccccc2C1C1(O)C(=O)Nc2ccc(F)cc21 (configuration not stated) returned LANA-nucl inh -0.23 and Ab BasE inh 1.0.
`Cc1ccccc1Cn1c(N2CCC(C(=O)N3CCN(C(=O)c4ccco4)CC3)CC2)nc2ccccc21` gave LANA-nucl inh -1.2 and Ab BasE inh -1.6.
c1ccc(-n2nnnc2SSc2nnnn2-c2ccccc2)cc1 was read as LANA-nucl inh 0.33 and Ab BasE inh 3.7.
Screening COc1ccc(CN(C)C(=O)c2ccc(=O)[nH]c2)cc1 returned Ab BasE inh 3.1.
Screening COc1ccc(S(=O)(=O)N2CC(O)CC2C(=O)OCc2nc3sc(C)c(C)c3c(=O)[nH]2)cc1 (configuration not stated) returned Ab BasE inh -6.2.
Screening CCSc1nc(-c2ccccc2)nc2c1CCCC2 returned Ab BasE inh 1.0.
Screening Cc1nc(C(F)(F)F)ccc1C(=O)NCC(O)c1ccccc1 (configuration not stated) returned Ab BasE inh 5.7.
`CN1CCC(N(C)C(=S)NCCc2ccccc2)CC1` gave LANA-nucl inh -0.45 and Ab BasE inh 1.3.
`O=C(CSC1CCCC1)Nc1ccc(N2CCOCC2)cc1` gave Ab BasE inh -1.3.
Screening CCCn1c(SCc2c(C)noc2C)nc2ccccc2c1=O returned Ab BasE inh 0.5.
Screening Cc1ccc(/C=C(\NC(=O)c2ccccc2)C(=O)NCC2CCCO2)o1 (configuration not stated) returned LANA-nucl inh 0.31 and Ab BasE inh 2.7.
Screening S=c1sc2ccccc2n1CCn1c(=S)sc2ccccc21 returned Ab BasE inh 1.3.
`N#Cc1cc(C(N)=O)c(SCc2ccccc2)nc1N` gave Ab BasE inh -0.1.
Screening CCOC(=O)C1CCCN(C(=O)CN2N=C(c3ccccc3)CCC2=O)C1 (configuration not stated) returned LANA-nucl inh -1.9 and Ab BasE inh 1.8.
For CC1(C)CC(=O)c2cc(C(=O)NCCC3=CCCCC3)c(=O)n(-c3ccccc3)c2C1 the results were Ab BasE inh 2.0.
`CCOc1cc(C(=O)OCCN2C(=O)c3ccccc3C2=O)ccc1OCC(=O)N1CCCCC1` gave Ab BasE inh -0.6.
Cc1ccc(C2CC(=O)C(C=NCCN3CCNCC3)=C(O)C2)cc1 (configuration not stated) was read as LANA-nucl inh 0.85 and Ab BasE inh -6.1.
`C/C(=C(/C#N)P(=O)(c1ccccc1)c1ccccc1)N1CCOCC1` gave Ab BasE inh 3.0.
Screening O=C(NCc1cccs1)C1c2ccccc2C(=O)N(C2CCCC2)C1c1cccs1 (configuration not stated) returned LANA-nucl inh -1 and Ab BasE inh 1.2.
Screening O=c1c2ccccc2sn1-c1nc2ccccc2s1 returned Ab BasE inh 2.1.
Screening CCCC1(CCC)NC(=O)N(Cc2ccc(-c3ccc(Br)cc3)o2)C1=O returned Ab BasE inh -2.0.
Screening N#CCCn1cc(Cl)c(=O)c(Cl)c1 returned Ab BasE inh 0.7.
`COc1ccc(CN2C(=O)CC(C(=O)O)SC2=Nc2ccccc2)cc1` (configuration not stated) gave LANA-nucl inh -0.25 and Ab BasE inh 0.6.
Screening Cc1ccc(NC(=O)Cc2coc3ccc4ccccc4c23)nc1 returned LANA-nucl inh 1.1 and Ab BasE inh -1.3.
`COc1ccc(C(=O)CSc2nnc(CN3CCCC3)o2)cc1F` gave Ab BasE inh 0.8.
O=C(COC(=O)/C=C/c1ccc2c(c1)OCO2)Nc1ccccc1 was read as Ab BasE inh 0.9.
`O=C(O)/C=C/C(=O)Nc1ccccc1C(=O)O` gave LANA-nucl inh 0.59 and Ab BasE inh -2.2.
Screening N#Cc1cccc(C#N)c1Oc1ccc(S(=O)(=O)NCc2ccco2)cc1 returned Ab BasE inh -4.4.
Screening O=C(/C=C/c1ccco1)NCC1(c2ccccc2)CCOCC1 returned LANA-nucl inh -1.3 and Ab BasE inh 0.4.
Screening N#Cc1ccc(CSc2ccc(Cl)cc2)cc1 returned Ab BasE inh 2.1.
Screening CO[C@H]1O[C@@H]2O[C@@]3(C)CC[C@H]4[C@H](C)CC[C@@H]([C@H]1C)[C@@]24OO3 returned LANA-nucl inh 0.14.
Screening CC(C)(C)NCC(=O)Nc1ccc(F)cc1Cl returned Ab BasE inh 2.4.
Screening CCNC(=O)NCCC12CC3CC(CC(C3)C1)C2 returned Ab BasE inh 2.4.
O=C(c1ccc(CS(=O)(=O)c2ccc(C(F)(F)F)cn2)o1)N1CCOCC1 was read as LANA-nucl inh -0.36 and Ab BasE inh 2.3.
O=C(O)CNC(=O)C(CS)Cc1ccccc1 (configuration not stated) was read as LANA-nucl inh 0.059&-0.059 and Ab BasE inh -0.5&-0.9.
`Cc1cc(=O)[nH]c(SCC(=O)N2c3ccccc3CCc3ccccc32)n1` gave Ab BasE inh -1.1.
CCn1c(O)c(C=Nc2cccc(Cl)c2)c(=O)[nH]c1=S was read as LANA-nucl inh 0.35 and Ab BasE inh 1.7.
For CCOC(=O)c1ccc(-n2c(C)cc(C=C3C(=O)NC(=S)NC3=O)c2C)cc1 the results were Ab BasE inh 0.0.
Screening COc1ccc(-c2nnc(SCCOc3ccc(Cl)cc3)o2)cc1 returned Ab BasE inh -0.9.
Screening Cc1ccccc1Nc1nc(N)nc(CSc2nnc(-c3ccccc3F)o2)n1 returned Ab BasE inh 0.3.
For O=C(COC(=O)c1cccnc1Nc1cccc(C(F)(F)F)c1)NCc1ccco1 the results were Ab BasE inh 0.4.
For Cn1ccc(NC(=O)C(c2ccccc2)c2ccccc2)n1 the results were Ab BasE inh -2.0.
COc1cc(S(=O)(=O)NC(C)(C)CC(C)(C)C)ccc1NC(C)=O was read as Ab BasE inh -5.0.
CCOC(=O)Cc1cc(=O)n2[nH]cc(C#N)c2n1 was read as LANA-nucl inh -0.65 and Ab BasE inh 2.6.
Cc1oc(/N=C/c2ccccc2)c(C#N)c1C was read as LANA-nucl inh -0.66 and Ab BasE inh 0.7.

In the list so far, these contain a thiophene ring, fused or not.
For CCOC(=O)c1sc(-c2ccc(C)cc2)c(C#N)c1C the results were Ab BasE inh -0.1.
Screening CN1c2ccsc2C(=O)/C(=C/Nc2cccnc2)S1(=O)=O returned LANA-nucl inh -0.79 and Ab BasE inh 2.7.
CCOC(=O)c1cc2c(=O)n(C)c3ccccc3c2s1 was read as LANA-nucl inh -0.33 and Ab BasE inh 1.0.
Screening COc1ccc(S(=O)(=O)N2CC(O)CC2C(=O)OCc2nc3sc(C)c(C)c3c(=O)[nH]2)cc1 (configuration not stated) returned Ab BasE inh -6.2.
Screening O=C(NCc1cccs1)C1c2ccccc2C(=O)N(C2CCCC2)C1c1cccs1 (configuration not stated) returned LANA-nucl inh -1 and Ab BasE inh 1.2.

Other records follow.
O=C1NCCCCC1NS(=O)(=O)c1ccc(Cl)cc1 (configuration not stated) was read as Ab BasE inh 2.0.
For O=C1CSCC(=O)N1c1cc(C(F)(F)F)cc(C(F)(F)F)c1 the results were LANA-nucl inh 0.042 and Ab BasE inh 0.2.
For O=C(NCCCn1ccnc1)c1cc(C(=O)C2CCCCC2)c[nH]1 the results were LANA-nucl inh 2.6.
`COc1ccc(CN(C)C(=O)COc2ccccc2)cc1` gave LANA-nucl inh 0.08 and Ab BasE inh 1.6.
Screening COCCn1c(C23CC4CC(CC(C4)C2)C3)n[nH]c1=S returned LANA-nucl inh -1.1 and Ab BasE inh -0.8.
For CC(O)(CS(=O)(=O)Cc1ccc(Cl)cc1)C(=O)Nc1ccc(Cl)cc1 (configuration not stated) the results were LANA-nucl inh 1.3.
COC(=O)C1=C(C)N(CC2CCCO2)C(=O)/C1=C/c1ccc(CNS(=O)(=O)c2ccc(Cl)cc2)o1 (configuration not stated) was read as LANA-nucl inh -0.47 and Ab BasE inh -0.5.
Screening CC(C)NC(=O)c1ccc(CS(=O)Cc2ccc(Cl)cc2)o1 (configuration not stated) returned LANA-nucl inh -0.48 and Ab BasE inh -0.6.
`COc1cc(OC)cc(C(=O)Nc2ccc(OCC(=O)O)cc2)c1` gave LANA-nucl inh -0.34 and Ab BasE inh 1.5.
`O=C1c2ccccc2NC(c2ccccn2)N1c1ccc(Cl)cc1` (configuration not stated) gave Ab BasE inh 1.6.
Screening OC(CNCc1ccco1)COc1ccc(OCC(O)CNCc2ccco2)cc1 (configuration not stated) returned LANA-nucl inh 0.2 and Ab BasE inh 0.0.
For O=C(Cn1cncn1)Nc1c(Cl)cc(Cl)cc1Cl the results were Ab BasE inh -3.9.
For Cc1cc(Oc2ccccc2)nc(OCC#N)n1 the results were LANA-nucl inh 0.49 and Ab BasE inh 0.8.
COc1ccccc1NC(=O)CCC1COc2ccccc2O1 (configuration not stated) was read as LANA-nucl inh -1.6 and Ab BasE inh 0.5.
For CCN1C(=O)/C(=C\c2cccc3c2-c2ccccc2C3=O)OC1=S the results were Ab BasE inh 1.4.
Cc1ccnc2nc(C(=O)N3C(=NCc4ccccc4)SCC3(C)C)nn12 was read as Ab BasE inh 0.8.
For CCOC(=O)C1CCCN(c2ncnc3[nH]ncc23)C1 (configuration not stated) the results were Ab BasE inh 0.8.
For O=C(COc1ccc(/C=c2/sc3nc4ccccc4n3c2=O)cc1)N1CCCC1 the results were Ab BasE inh -1.1.
For O=C(NCc1ccccc1)c1cccc(S(=O)(=O)N2CCCC2)c1 the results were Ab BasE inh 4.9.
For CC1(C)Cc2nc(N)c(C#N)cc2CO1 the results were LANA-nucl inh 0.24 and Ab BasE inh -0.9.

Ordered by heavy-atom count (lowest first): part of the list above.
For CC1(C)Cc2nc(N)c(C#N)cc2CO1 the results were LANA-nucl inh 0.24 and Ab BasE inh -0.9.
For O=C(Cn1cncn1)Nc1c(Cl)cc(Cl)cc1Cl the results were Ab BasE inh -3.9.
Screening OC(CNCc1ccco1)COc1ccc(OCC(O)CNCc2ccco2)cc1 (configuration not stated) returned LANA-nucl inh 0.2 and Ab BasE inh 0.0.

Additional compounds follow:
Cc1noc(C)c1C(=O)Nc1ccc(S(=O)(=O)N2CCCc3ccccc32)cc1 was read as LANA-nucl inh -0.014 and Ab BasE inh 0.2.
For Cn1c(=NC(=O)c2ccc(F)cc2)sc2ccccc21 the results were Ab BasE inh -0.6.
CCN1C(=O)C(CC(=O)Nc2ccc(F)cc2)N(CCc2ccccc2)C1=S (configuration not stated) was read as Ab BasE inh 1.0.
CCn1c(=O)[nH]c(=O)c2c(C(F)(F)F)cc(-c3ccc(C)cc3)nc21 was read as Ab BasE inh -0.4.
`CSC(=NCc1ccco1)Nc1cc(-c2ccccc2)[nH]n1` gave LANA-nucl inh 0.59 and Ab BasE inh 0.8.
Cc1cccc(-n2c(C)cc(C(=S)N3CCOCC3)c2C)c1C was read as Ab BasE inh 0.6.
Screening O=C(Nc1cccc2ccccc12)NC1CC1 returned LANA-nucl inh 2.5 and Ab BasE inh -4.5.
`O=C(OC1CCOC1=O)c1ccc2c(c1)C(=O)N(Cc1ccccc1)C2=O` (configuration not stated) gave Ab BasE inh 1.1.
